# Anaer choline gr: growth inhibitors of anaerobic choline-fed gram-negatives, minimal medium, absorbance | calls only | 55,000 compounds, 0.2% hits | Gram-negative bacterium anaerobic choline minimal medium; stronger effect = lower value; many inactives read as strong as hits in the columns shown;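 active means growth z-score on choline under -2 at 7 or 20 h with little or no fall on glycerol, limits in tiers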;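 further: stock transfer was 300 nL into about 50 µL; the organism is E. coli; final concentration not given here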
# Anaer choline gr early: second read-out of Anaer choline gr, no call of its own (marks repeat the call); z-score; measured here: choline growth z-score, timepoint 1;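 score of optical density at 7 h as mean of two plates; lower means less growth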
# * marks the source's active call; other numbers are inactive results; i = inactive; & = joins results of further samples. These rows are one share of the data, so the mix of outcomes need not match the whole.
SMILES,Anaer choline gr,Anaer choline gr early
COC(=O)c1sccc1NC(=O)N1CCCC1c1ccc(C)cc1 (stereo not given),i,0.3
Cc1cc(C)cc(NC(=O)c2cc3c([nH]c2=O)CC(C)(C)CC3=O)c1,i,0.08
O=C(NCC1CC1)C1CCN(c2cnc(N3CCOCC3)nc2)CC1,i,0.58
C=CCn1c(=O)c(=O)n(Cc2ccc(C(=O)NCCc3ccccc3OC)cc2)c2ccccc21,i,0.93
O=S(=O)(c1cn(Cc2noc(/C=C/c3ccccc3)n2)cn1)N1CCCCC1,i,-0.26
CC(NS(=O)(=O)c1ccc2[nH]c(=O)c(=O)[nH]c2c1)C(=O)O (stereo not given),i,-0.45
Cc1ccccc1CSc1nc(=O)n(Cc2ccccc2)c2c1CCC2,i,0.14
O=C(c1ccccc1-c1nc(-c2ccccc2)no1)N1CCCC1,i,-0.93
CN1CCN(C(=O)CCC2CCCN(c3cc(NC4CC4)ncn3)C2)CC1 (stereo not given),i,0.82
Nc1nc(SCc2ccc([N+](=O)[O-])cc2)c2ncn([C@@H]3O[C@H](CO)[C@H](O)C3O)c2n1 (stereo not given in full),i,-0.12
Cc1c2c(=O)n(-c3nc4ccccc4s3)nc-2cc(O)n1CCc1cnc[nH]1,i,1.46
CCCCNC(=O)C1CCN(C(=O)c2nn(C)c3c2CN(C(=O)C(C)C)CC3)CC1,i,-0.58
Cc1cccc2c1cnn2C(=O)Nc1cccc(Cl)c1,i,2.63
COCCCn1c2c(c(SCc3ccccc3F)nc1=O)CCC2,i,-1.42
c1ccc(Cc2nc3c4c5c(sc4ncn3n2)CCCC5)cc1,i,0.38
COc1cc(-c2noc(-c3scc(-c4cccc(C)c4)c3-n3cccc3)n2)ccc1OC(C)C,i,-1.29
Cc1ccc(CN2CCCC2c2cc(C(C)C)on2)cc1 (stereo not given),i,-1.68
COc1ccc(-c2ccc(OCCNC(=O)c3ccc(Cl)cc3)nn2)cc1,i,-1.44
CN1C(C(=O)NCc2cccnc2)=C(c2ccccc2)c2cc(Cl)ccc2S1(=O)=O,i,1.42
CCc1nc(CN2C(=O)COc3ccc(S(=O)(=O)N4CCOCC4)cc32)no1,i,-1.39

# Part of the list above in order of number of heavy atoms, lowest first:
SMILES,Anaer choline gr,Anaer choline gr early
c1ccc(Cc2nc3c4c5c(sc4ncn3n2)CCCC5)cc1,i,0.38
Cc1ccccc1CSc1nc(=O)n(Cc2ccccc2)c2c1CCC2,i,0.14
COc1ccc(-c2ccc(OCCNC(=O)c3ccc(Cl)cc3)nn2)cc1,i,-1.44
O=S(=O)(c1cn(Cc2noc(/C=C/c3ccccc3)n2)cn1)N1CCCCC1,i,-0.26
C=CCn1c(=O)c(=O)n(Cc2ccc(C(=O)NCCc3ccccc3OC)cc2)c2ccccc21,i,0.93

# Additional records
SMILES,Anaer choline gr,Anaer choline gr early
NS(=O)(=O)c1cc(Cl)c(Cl)c(S(N)(=O)=O)c1,i,0.5
COc1cc(=O)n(-c2ccc(C)cc2)nc1C(=O)Nc1ccccc1Cl,i,0.87
CCN(CCCNC(=O)Cc1cn(C)c2ccccc12)c1cccc(C)c1,i,0.58
Cc1cc(NC2CC2)n2ncnc2n1,i,-0.02
CCOc1ccccc1N(CC(=O)N1CCN(c2ccccc2)CC1)S(=O)(=O)c1ccc(C)cc1,i,-1.17
COC(=O)c1c(C)oc2ccc(O)c(CN3CCOCC3)c12,i,-0.09
CS(=O)(=O)Nc1ccc(-c2noc(/C=C/c3ccccc3)n2)cc1,i,-0.28
CC1Cc2cc(S(=O)(=O)N3CCC(N4CCCCC4)CC3)ccc2N1C(=O)C1CC1 (stereo not given),i,-0.81
Cc1nc(CC(=O)Nc2cccc(C)c2C)cs1,i,-0.55
Cc1cc2c(cc1S(=O)(=O)N1CCC(C(=O)N3CCN(c4ccc(Cl)cc4)CC3)CC1)OCC(=O)N2,i,-1.35
CN(C)C(=O)Oc1ccc[n+](C)c1,i,0.17&0.66&0.78
Cc1cc(Cl)ccc1NS(=O)(=O)c1ccc2[nH]c3c(c2c1)CCCC3,i,1.5
O=C1OC(CN2CCOCC2)CN1N=Cc1ccc([N+](=O)[O-])o1 (stereo not given),i,-2.72
COc1cc(=O)n(-c2ccccc2)nc1C(=O)N1CCN(C(c2ccccc2)c2ccccc2)CC1,i,-1.39
COc1ccc(-c2ccnc3cc(C(=O)Nc4ccc5c(c4)OCO5)nn23)cc1OC,i,1.61
Cc1ccc(C(=O)Nc2cccc(C(=O)N3CCCC(C(=O)NCCc4ccccc4)C3)c2)cc1 (stereo not given),i,-0.15
CC(C)Cc1ccc(S(=O)(=O)N2CCc3nc(N4CCCCC4)ncc3C2)cc1,i,-0.54
CC(C)N1C(=O)c2ccccc2Sc2cc(NC(=O)C3CCC3)ccc21,i,-0.38
CNC(=O)Cc1ccc(-n2c(=O)c3ccccc3n(CC(=O)Nc3ccc(Cl)cc3)c2=O)cc1,i,2.41
CCSc1nc2c(c(=O)[nH]1)C(C(=O)Nc1ccccc1)CC(=O)N2 (stereo not given),i,-0.41

# In the list so far, five contain an NH in an aromatic ring:
SMILES,Anaer choline gr,Anaer choline gr early
Cc1cc(C)cc(NC(=O)c2cc3c([nH]c2=O)CC(C)(C)CC3=O)c1,i,0.08
CC(NS(=O)(=O)c1ccc2[nH]c(=O)c(=O)[nH]c2c1)C(=O)O (stereo not given),i,-0.45
Cc1c2c(=O)n(-c3nc4ccccc4s3)nc-2cc(O)n1CCc1cnc[nH]1,i,1.46
Cc1cc(Cl)ccc1NS(=O)(=O)c1ccc2[nH]c3c(c2c1)CCCC3,i,1.5
CCSc1nc2c(c(=O)[nH]1)C(C(=O)Nc1ccccc1)CC(=O)N2 (stereo not given),i,-0.41

# Next section:
SMILES,Anaer choline gr,Anaer choline gr early
Cn1c(CNS(=O)(=O)c2ccc(Cl)cc2)nc2cccnc21,i,-1.19
Cc1ccccc1-c1nc(Cn2c(=O)c3cccnc3n(-c3ccccc3)c2=O)c(C)o1,i,-0.91
CCc1csc(C2CCCN(C(C)=O)C2)n1 (stereo not given),i,-0.09
CC(CNC(=O)CCS(=O)(=O)c1ccc2c(c1)NC(=O)CO2)c1ccccc1 (stereo not given),i,0.05
COc1cc(C=CC(=O)N2CCN(CC(=O)N3CCCC3)CC2)cc(OC)c1OC,i,0.7
CC(=O)N[C@@H](CSC/C=C(\C)CC/C=C(\C)CCC=C(C)C)C(=O)O,i,0.06
CC(=O)N1CCOc2cc(S(=O)(=O)N3CCN(c4ccccc4)CC3)c(Cl)cc21,i,0.34
C=CCn1c(=O)c2ccc(C(=O)NC(C)C)cc2n2c(=O)n(CC(=O)NC(C)CC)nc12 (stereo not given),i,-0.07
O=C(Nc1ccc(OCc2cc(C(=O)NCCCc3ccccc3)no2)cc1)c1ccccc1,i,-1.29
O=C(CCC(=O)N1CCCN(c2nc3cccnc3s2)CC1)N1CCN(c2ncccn2)CC1,i,0.27
COc1ccc(-c2cc(C(=O)Nc3cccc4cccnc34)c3ccccc3n2)cc1,i,-2.49
O=S(=O)(Nc1cccc(-c2nnc(-c3ccccc3)o2)c1)c1ccc(Br)cc1,i,0.65
COc1ccc(C2CC(=O)C3=C(C2)Nc2onc(C)c2C3CC(C)C)cc1 (stereo not given),i,0.68
O=C(CN1C=NS(=O)(=O)c2ccccc21)Nc1ccc(Br)cc1,i,-0.65
COc1ccc(C[C@H](N)C(=O)N[C@H]2[C@@H](O)[C@H](n3cnc4c(N(C)C)ncnc43)O[C@@H]2CO)cc1,i,-0.34
Brc1ccc(-c2ccc(CNCC3CCCO3)o2)cc1 (stereo not given),i,-0.35
CCN(CC)CCCC(C)NC(=O)C(=O)NCc1n[nH]c(=O)c2ccccc12 (stereo not given),i,-0.92
CCCN(CCC)C(=O)Cn1c(SCc2cccc(C)c2)nc2ccncc21,i,1.01
CNS(=O)(=O)c1ccc2c(c1)c(=O)n(CCC(=O)N1CCCC1)c(=O)n2C,i,-0.26
Cc1nn(-c2ccc3nncn3n2)c(C)c1CCC(=O)Nc1ccccc1,i,-0.25

# Part of the list above, with tabs.
smiles	Anaer choline gr	Anaer choline gr early
COc1ccc(C2CC(=O)C3=C(C2)Nc2onc(C)c2C3CC(C)C)cc1 (stereo not given)	i	0.68
CNS(=O)(=O)c1ccc2c(c1)c(=O)n(CCC(=O)N1CCCC1)c(=O)n2C	i	-0.26

# Going on with the list:
SMILES,Anaer choline gr,Anaer choline gr early
CC(O)Cc1nsc(NC(=O)c2ccccc2Cl)n1 (stereo not given),i,0.01
Cc1ccc(-c2cc(N3CCN(C(=O)c4ccc(C)c(C)c4)CC3)ncn2)cc1,i,0.36
Cc1ccc(C)c(N2CCN(C(=O)C3CCCN(C(=O)c4[nH]c(C)cc4C)C3)CC2)c1 (stereo not given),i,0.86
COCCNC(=O)C1CCCN(S(=O)(=O)c2cc(-c3noc(C)n3)cs2)C1 (stereo not given),i,0.21
Cc1ccccc1S(=O)(=O)Nc1ccc(Sc2ccc(C(=O)NCCC(C)C)cn2)cc1,i,0.3
CC(C)CCNC(=O)CCCCn1c(=O)c2ccccc2n(CC(=O)Nc2ccc(F)cc2)c1=O,i,1.5
CC(C)NCC(O)c1ccc(O)c(O)c1 (stereo not given),i,-1&0.63&1.09
COc1ccc(-c2nc(-c3ccn4cnnc4c3)no2)c(OC)c1,i,0.2
COC(=O)c1ccc2c(=O)n(-c3ccc4c(c3)OCO4)c(N3CCC(C)CC3)nc2c1,i,-1.96
O=C(NC1CCCCC1)c1nc[nH]c1C(=O)NC1CCCC1,i,-1.05
CC1CCN(S(=O)(=O)c2cc(-c3nnc(C4CC4)o3)co2)CC1,i,0.64
Fc1ccccc1-c1nnc(C2CCC2)o1,i,-0.54
CC(C)(C)c1ccc(CN2C(=O)N(Cc3ccccc3)S(=O)(=O)c3ccccc32)cc1,i,0.35
O=C(CSc1nc2nc[nH]c2c(=O)[nH]1)NCc1ccccc1,i,-0.96
CCc1ccc(C(=O)c2c(N)c(C(=O)Nc3cccc(F)c3)c3ccccn23)cc1,i,-0.4
CC(C)C(=O)Nc1nnc(C2CC(=O)N(c3ccc(F)cc3)C2)o1 (stereo not given),i,-0.84
O=C(NCCC1=CCCCC1)c1cccn1-c1cccnc1,i,-0.67
C#CCOc1ccc(C2CC(=O)Nc3c2cnn3-c2nc3ccccc3s2)cc1 (stereo not given),i,-1.21
O=C(Nc1ccccc1F)N1CCC(n2cnc3cc(Cl)ccc3c2=O)CC1,i,1.18
Cc1ccc(-c2nn3c(=O)cc(CNC(=O)Nc4ccc(C)c(C)c4)nc3s2)cc1,i,0.68
COCc1nc2ccccc2n1CCCCOc1cccc(C)c1,i,0.12
COc1cccc(C(=O)Nc2cc(S(=O)(=O)N3CCCC3)sc2C)c1OC,i,0.7
COc1ccccc1NC(=O)CSc1nnc(C(C)N2C(=O)COc3ccccc32)n1C (stereo not given),i,-0.86
CCCNC(=O)C1=Cc2ccc(C)cc2OC=C1,i,0.4
COc1ccc(C2C3=C(CC(c4ccc(OC)c(OC)c4)CC3=O)Nc3onc(C)c32)cc1 (stereo not given),i,-0.18
CC1=C(C(N)=O)C(c2ccc(C(=O)O)cc2)n2ncnc2N1 (stereo not given),i,-0.03
Cc1ccc(NS(=O)(=O)c2cc3c4c(c2)CCN4C(=O)CC3)c(C)c1,i,0.35
Cc1ccc(S(=O)(=O)[C@H]2CS(=O)(=O)C[C@@H]2NCCc2c[nH]c3ccccc23)cc1,i,0.81
CCc1nc(CN2C(=O)COc3cc(S(=O)(=O)N4CCC(C)CC4)c(C)cc32)no1,i,0.06
CCn1c(C(=O)O)c(N2CCCC2=O)c2cc(F)ccc21,i,-0.28
CC(C)c1ccc(-n2ccn3c(=S)[nH]nc3c2=O)cc1,i,0.8
CCCCC[C@H](O)/C=C/[C@@H]1c2cc(CCCCC(=O)O)n(-c3ccccc3)c2C[C@H]1O,i,0.23
Cc1cc(C)cc(NC(=O)CCCc2nnc3n(CCC(C)C)c(=O)c4sccc4n23)c1,i,0.64
CCOCCCNC(=O)NCCn1nnc2cc(C(=O)N(C)C)ccc21,i,0.27
CCn1c(=O)[nH]c2c(C(=O)N3CCSCC3)snc2c1=O,i,0.41
COc1ccc(NC(=O)c2cnn(-c3ccccc3)c2)cc1OC,i,-0.52
COc1cc(NC(=O)CCSc2nc3c(=O)n(C)c(=O)n(C)c3n2C)c(OC)cc1Cl,i,-0.07
Cc1cc(C)c2c(-n3cccc3)nn(Cc3ccc(C(=O)NC(C)C)cc3)c2n1,i,0.84
Cc1cccc(NC(=O)C2CCN(S(=O)(=O)c3ccc4c(c3)C(C)(C)C(=O)N4C)CC2)c1,i,0.44
Cc1nnc(-c2cn(CC(=O)Nc3ccc(S(N)(=O)=O)cc3)c3ccccc23)o1,i,-0.41
COc1ccc(C2(C(=O)N3CCN(C)CC3)CC2)cc1,i,-1.82
Cc1noc(-c2ccc(-c3noc(-c4ccc(Cl)cc4)n3)cc2)n1,i,1.2
CCOCCCNS(=O)(=O)c1cc(-c2nc(C)c(C)s2)sc1C,i,0.55
C=CCNC(=O)c1cc2n(n1)CCCC2,i,-0.91
COc1ccc2[nH]cc(CCNC(=O)c3ccc4ccccc4n3)c2c1,i,0.81
O=C(NC1CCS(=O)(=O)C1)c1ccc(CN2C(=O)CCn3nc(-c4cccc(Cl)c4)cc32)cc1 (stereo not given),i,-1.56
COc1cc2c(=O)[nH]c3c(C(N)=O)sc(=S)n3c2cc1OC,i,-0.92
Cc1ccc(C)c(S(=O)(=O)Nc2cc(C(=O)O)cnc2N(C)C)c1,i,0.66
Cc1ccc(C(=O)Cn2nc3n(CC(C)C)c(=O)c4ccc(C(=O)NC5CCCC5)cc4n3c2=O)c(C)c1,i,-0.44
CCC(C)NC(=O)c1ccc(-c2cc(N3CCCC3)ncn2)cc1 (stereo not given),i,0.05
COc1ccc2[nH]c3c(c2c1)CCN(C(=O)C1CC1)C3c1ccc(F)cc1 (stereo not given),i,-0.62
COc1ccc2[nH]c3c(c2c1)CCNC3c1ccc(F)cc1 (stereo not given),i,-0.43
